Assay outcomes from PubChem BioAssay.
VDR inh: inhibitors of human vitamin D receptor. P11473. Potency, µM, for inactives: max response, negative = inhibition, actives largely listed as inhibitors. hit rate 0.93% among 400,000. VDR-SRC2-3 peptide fluorescence polarization, 2 h; active = well fitted inhibition curve with a large enough effect; inconclusive = small, poorly fitted or top-dose-only effect, or another doubt; inactive = no such curve, though single readings can be large or run the other way; also: series mostly up to about 120 µM
Target sequence (P11473 whole entry, looked up): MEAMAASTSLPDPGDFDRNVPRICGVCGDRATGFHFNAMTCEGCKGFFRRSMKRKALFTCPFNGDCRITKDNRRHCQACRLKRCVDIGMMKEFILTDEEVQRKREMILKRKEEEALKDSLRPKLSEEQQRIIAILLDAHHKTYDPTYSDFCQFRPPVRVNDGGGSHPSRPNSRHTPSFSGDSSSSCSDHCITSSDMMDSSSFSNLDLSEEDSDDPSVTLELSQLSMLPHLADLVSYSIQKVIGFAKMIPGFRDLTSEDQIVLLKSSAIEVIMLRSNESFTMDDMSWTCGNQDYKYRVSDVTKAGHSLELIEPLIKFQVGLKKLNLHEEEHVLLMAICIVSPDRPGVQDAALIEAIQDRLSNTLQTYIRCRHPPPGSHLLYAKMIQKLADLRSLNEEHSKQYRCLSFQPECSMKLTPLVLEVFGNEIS
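Compounds are added to VDR with labelled SRC2-3 coactivator peptide and held 2 h at room temperature. Inhibition of the VDR–peptide interaction is then read as a change in fluorescence polarization.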
Numbers without * were called inactive; ? = inconclusive; & = joins results of further samples; [ ] = remark or other dose. % is scaled to controls: 0 for no effect and ±100 for the full control effect; potency is read from the fitted curve at half-maximal effect. The list is partial; the hit share may differ from the screen's.

Preview, 2 compounds:
SMILES	VDR inh
O=C(O)C1CC=CCC1C(=O)NNS(=O)(=O)c1ccccc1 (stereo not given)	-3%
O=[N+]([O-])c1ccc(CSc2ccc(S(=O)(=O)N3CCOCC3)cn2)cc1	6%

Results, repeating the preview:
SMILES	VDR inh
O=C(O)C1CC=CCC1C(=O)NNS(=O)(=O)c1ccccc1 (stereo not given)	-3%
O=[N+]([O-])c1ccc(CSc2ccc(S(=O)(=O)N3CCOCC3)cn2)cc1	6%
COc1cc(CN(C)C(C)C(=O)Nc2ccc([N+](=O)[O-])cc2Cl)ccc1OC(F)F (stereo not given)	-15%
CCOC(=O)CCN(Cc1ccccc1)S(=O)(=O)c1csc(C(N)=O)c1	4%&7%
COc1ccccc1N1C(=O)c2ccc(C(=O)Nc3ccc(C(=O)O)cc3)cc2C1=O	-4%
Cc1ccc(S(=O)(=O)NC(=NC2CCCCC2)c2ccc(Cl)cc2)cc1	-12%
O=C(NC(NC(=S)Nc1ccccc1C(=O)O)C(Cl)(Cl)Cl)c1cccc([N+](=O)[O-])c1 (stereo not given)	?
CCn1c(=O)cc(N2CCOCC2)[nH]c1=O	3%
COc1ccc(C2CC(=O)Oc3cc(OC)ccc32)cc1 (stereo not given)	-9%&3%
CC(C)c1ccccc1OS(N)(=O)=O	-13%
NC(=O)c1ccsc1NC(=O)CCS(=O)(=O)c1ccc(Cl)cc1	-1%
COc1ccccc1NC(=O)N(Cc1cc2cc(OC)c(OC)cc2[nH]c1=O)CC1CCCO1 (stereo not given)	9%
Cc1oc2c(c1C(=O)N1CCOCC1)C(=O)c1ccccc1C2=O	-16%
CCOc1ccc(S(=O)(=O)N(CC(=O)Nc2ccc3c(c2)OCO3)c2ccc(C)cc2)cc1	-2%
COc1ccc(COc2ccc3ccc(=O)oc3c2)cc1	8%
Cc1cc(NC(=O)C2C3C=CC(C3)C2C(=O)O)no1 (stereo not given)	9%
CCc1ccc(-c2cc(C)no2)cc1S(=O)(=O)Nc1cc(C)on1	-12%
CC(C)(C)OC(=O)N1CCN(C(=O)c2[nH]cnc2C(=O)NCc2ccccc2)CC1	-13%
CN1CCN(c2ccccc2NC(=O)c2ccc(N3CCCC3)c([N+](=O)[O-])c2)CC1	-13%
CC1=C(C(=O)OCc2ccccc2)C(c2ccc(Cl)cc2Cl)NC(=O)N1CCCCCC(=O)O (stereo not given)	-11%
CN(C)c1ccc(C(=C2C=CC(=[N+](C)C)C=C2)c2c(O)c(S(=O)(=O)[O-])cc3cc(S(=O)(=O)O)ccc23)cc1	88%[activator]
CCOC(CCNC(=O)c1cc2c(=O)[nH]c3ccccc3c2s1)OCC	-3%
COc1ccc(Cl)cc1NC(=O)CN(C)C(=O)c1cn2ccccc2n1	-14%
CCOC(=O)N1CCN(C(=O)COC(=O)C2CCN(S(=O)(=O)c3c(C)c(C)cc(C)c3C)CC2)CC1	8%
CCOC(=O)C(Cc1ccccc1)NC(=O)CCc1nnc2ccc(N3CCCC3)nn12 (stereo not given)	-17%

Three compounds from above, arranged by length of the SMILES, lowest first.
SMILES	VDR inh
COc1ccc(C2CC(=O)Oc3cc(OC)ccc32)cc1 (stereo not given)	-9%&3%
Cc1ccc(S(=O)(=O)NC(=NC2CCCCC2)c2ccc(Cl)cc2)cc1	-12%
O=C(NC(NC(=S)Nc1ccccc1C(=O)O)C(Cl)(Cl)Cl)c1cccc([N+](=O)[O-])c1 (stereo not given)	?

The list goes on.
SMILES	VDR inh
Clc1ccccc1-c1nnc2sc(-c3ccncc3)nn12	?
Cc1cccc(N(CC(=O)NCCSCc2ccc(Cl)cc2)S(C)(=O)=O)c1C	-3%
N#Cc1ccc(-c2ccc(OCC(O)Cn3nnc4ccccc43)cc2)cc1 (stereo not given)	2%
COc1cc2c(cc1NC(=O)CSc1nnnn1-c1ccccc1)oc1ccccc12	10%
Cc1ccc(-n2ncc3c(=O)n(CC(=O)NCc4ccco4)cnc32)cc1C	-6%
COc1cc(/C=N/NC(=S)Nc2cccc(S(=O)(=O)N(C)C)c2)ccc1O	-8%
O=C(COC(=O)c1ccc(OC(F)F)cc1)NC(=O)NC1CCCC1	-10%
CCn1c(O)c(C2=NCCCC2)c2ccccc21	-6%
CCCCN(CCCC)CC(O)CN1C(=O)NC(C)(C)C1=O (stereo not given)	1%
COc1ccc(/C(N)=N/OC(=O)c2cccc([N+](=O)[O-])c2)cc1	8%
COc1ccc(OC)c(-c2cc(C(=O)Nc3cccc(Cl)c3)no2)c1	-6%
O=C(Nc1cccc([N+](=O)[O-])c1)N(c1ccccc1)c1ccccc1	18%
COc1ccc(N(C(=O)C2CCCCC2)C2C=CS(=O)(=O)C2)c(OC)c1 (stereo not given)	-8%
Oc1ccc(/C=N\Nc2cc(N3CCOCC3)nc(N3CCOCC3)n2)c(O)c1	1%
CCN(CC)S(=O)(=O)c1ccc(N2CCOCC2)c(NC(=O)c2ccc3ccccc3c2)c1	-5%
CCN(CC)C(=O)c1c(C)nc2ccccn12	-10%
Cc1ccc(S(=O)(=O)N2[C@@H](c3ccc(Br)cc3)C(C(=O)O)=C[C@H]2CC2CCCC2)cc1	?
O=C(Nc1ccc(N2CCOCC2)c2nonc12)C1CCCC1	-22%
COc1ccc(C(=O)O)cc1S(N)(=O)=O	-12%
Cc1ccc(-n2nc(C(=O)N(C)Cc3ccccc3)c3c4ccccc4n(C)c3c2=O)cc1	-17%
COc1cc2c3c(c1)/C(=C1/SC(NC(C)=O)=NC1=O)C(=O)N3C(C)(C)C=C2C	?
Cc1ccccc1N1C(N)=NC(N)=NC1(C)C	3%
O=C(O)c1ccccc1SCc1cn2cc(Cl)ccc2n1	11%
CC(=O)Nc1ccc(S(=O)(=O)N2CCSc3ccccc32)cc1	12%
Cc1nnc2c(NC3CCCCC3)nc3ccccc3n12	-5%

Look-ups from the list.
COc1ccc(/C(N)=N/OC(=O)c2cccc([N+](=O)[O-])c2)cc1 – VDR inh = 8%
O=C(Nc1ccc(N2CCOCC2)c2nonc12)C1CCCC1 – VDR inh = -22%

A second format for some results above.
> CCn1c(O)c(C2=NCCCC2)c2ccccc21
  VDR inh = -6%
> Cc1ccc(-n2nc(C(=O)N(C)Cc3ccccc3)c3c4ccccc4n(C)c3c2=O)cc1
  VDR inh = -17%

(list continues)
SMILES	VDR inh
CCN(CC(=O)Nc1ccc(N2CCOCC2)cc1)C(=O)COc1ccccc1OC	-14%
Cc1ccc(CCNC(=O)NCc2noc3ccccc23)cc1	9%
O=C(NC1(C(=O)NC2CCCCC2)CCCCC1)c1ccccn1	2%
O=C(O)c1ccccc1Nc1cccc(OCc2ccc3ccccc3n2)c1	-12%&-15%
CCOC(=O)N1CCC(NC(=O)CC(NS(=O)(=O)c2ccc(Cl)cc2)c2ccco2)CC1 (stereo not given)	3%
O=C(CN(CCc1ccccc1)C(=O)CNS(=O)(=O)c1ccccc1)NCc1ccco1	-21%
CC(=O)c1ccc(NC(=O)C(C)n2nc(-c3ccccc3)c3cc(Cl)ccc32)cc1 (stereo not given)	-23%
O=Cc1ccc(Oc2cnccn2)cc1	-6%
O=C1C=CC(=O)N1Cc1ccncc1	-12%
COC(=O)c1cc(NC(=O)C2COc3ccccc3O2)ccc1Cl (stereo not given)	-10%
CC1CCCC(CC(N)=O)CC1 (stereo not given)	8%
CC(C)n1ncc2c(C(=O)NCC(=O)Nc3ccccc3Br)cc(C3CC3)nc21	9%
O=C(CSc1ccccc1)Nc1cccc(S(=O)(=O)N2CCOCC2)c1	-1%
Cc1ccc(N2CC(C(=O)Nc3nnc(C(C)C)s3)CC2=O)cc1 (stereo not given)	-4%
Cc1cc(=O)[nH]c(SCC(=O)Nc2cc(S(=O)(=O)N3CCCC3)ccc2Cl)n1	-5%
O=C(CSc1nnc(CNc2ccc(F)cc2)n1Cc1ccccc1)N1CCOCC1	0%
COCCn1c(SCC(=O)Nc2cc(C)on2)nc2ccccc21	1%
CCc1ccc(S(=O)(=O)Nc2cccc(C3OCCCO3)c2)cc1	-1%
CC(C)C(=O)Nc1ccc(C(=O)NNC(=S)NC(=O)c2ccco2)cc1	-10%
CCCN1C(=O)C(NC(=O)c2ccccc2OC)(C(F)(F)F)C(C(=O)OC)=C1C (stereo not given)	-2%
Clc1cc2c(nn1)Nc1ccccc1S2	-6%
CCOCC(=O)Nc1ccccc1C(=O)OCC	13%
CCN(C[C@H]1N[C@@](Cc2ccccc2)(C(=O)OC)[C@H]2C(=O)N(C)C(=O)[C@@H]12)C(=O)c1ccc(C)cc1	-3%
N#CCn1nnc(-c2ccc3c(c2)OCO3)n1	-9%
Cc1cccc(NC(=O)[C@H](Cc2ccccc2)NC(=O)[C@@H]2Cc3ccccc3CN2)c1	-4%
Remaining list, next part.
SMILES	VDR inh
Cc1ccc(CCC(=O)Nc2ccc(C#N)cc2)o1	-5%
COc1ccc(N(CC(=O)NC2CC3CCC2C3)S(=O)(=O)c2ccc(C)cc2)cc1OC (stereo not given)	5%
Cc1ccc(NC(=O)CN2C(=O)NC3(CCCCCC3)C2=O)cc1Cl	5%
C#CCOCCOCCOCCNc1nc(N2CCN(C(=O)Cn3cc(CCCN=C(N)N)nn3)CC2)nc(N2CCN(C(=O)[C@H](CCCCN)n3cc(CC(C)O)nn3)CC2)n1 (stereo not given in full)	-17%
Cc1ccc(NC(=O)CCC(=O)c2ccccc2)cc1	-3%
Cc1cccc(NC(=O)CN2CCN(C(=O)c3cnn(Cc4ccccc4)c3)CC2)c1C	-3%
O=C(Cc1ccc(F)cc1)Nc1nc(-c2ccc(F)cc2)cs1	9%
COc1cc2nc(-c3ccccc3C)oc(=O)c2cc1OC	0%
COc1ccc(C(=O)NC(=O)CSc2nnc(-c3ccco3)n2-c2ccccc2)cc1	-17%
CCc1noc(C)c1C(=O)OCC(=O)Nc1c(F)cccc1F	6%
c1coc(-c2nc3ccccn3c2Nc2ccc3c(c2)OCCO3)c1	6%
COC(=O)C1=C(C)Nc2nnnn2C1c1ccco1 (stereo not given)	-4%
CC1CCN(C(=O)N2c3ccccc3Sc3ccccc32)CC1	-3%
CC(C)c1nnc(NC(=O)CS(=O)(=O)c2ccccc2)s1	-4%
COc1cccc(CNC(=O)C2Cc3cc(S(=O)(=O)N4CCCCCC4)ccc3N2C(C)=O)c1 (stereo not given)	11%
CN(c1ccccc1)c1nc(N)c([N+](=O)[O-])c(NC2CCCCC2)n1	-8%
CC(Sc1nc2ccccc2o1)C(=O)O (stereo not given)	7%
Cc1cccc(Cn2c(SCc3ccc(C(=O)NC4CCCCC4)cc3)nc3cccnc32)c1	11%
O=c1[nH]c(SCc2cccc(F)c2)nc2ccccc12	-6%
CC(NC(=O)C(C)N1C(=O)C2C3CC(C(Br)C3Br)C2C1=O)c1ccccc1 (stereo not given)	-17%
O=C(Nc1sc2c(c1C(=O)N1CCCCC1)CCCC2)c1ccccc1Cl	-15%
Cc1ccc2[nH]c3c(=O)n(N)c(C)nc3c2c1	13%
COc1ccccc1CNC(=O)CCc1c(C)nn(-c2ccc(N3CCCCC3)nn2)c1C	9%
O=S(=O)(Nc1cccc2ccccc12)c1ccccc1F	-11%
COc1ccccc1C(=O)NCCC(=O)Nc1ccc(S(=O)(=O)N2CCCC(C)C2)cc1 (stereo not given)	-3%
(list continues)
SMILES	VDR inh
CC(C)C[C@@H](CO)N1CCN(Cc2ccc(Br)cc2)CCC1=O	-12%
O=C(NCCN1C(=O)S/C(=C\c2ccc(F)cc2)C1=O)c1cccc(S(=O)(=O)N2CCOCC2)c1	-9%
O=C(NCc1ccccn1)Nc1ccccc1F	-3%
CC[C@@H]1C=C(C(=O)O)[C@H](c2ccc(F)cc2)N1S(=O)(=O)c1ccc(C)cc1	-17%
c1coc(Cn2nnnc2CN2CCN(C3CCCCC3)CC2)c1	2%
CC1CCN(S(=O)(=O)c2cc(C(=O)NCc3ccccc3)n(C)c2)CC1	19%
COc1c(Cl)cc(-c2noc(C)c2C(=O)NCc2ccccc2)cc1Cl	-16%
COc1ccc(C(=O)Oc2ccc(/C=N/NC(=O)Cc3ccc([N+](=O)[O-])cc3)cc2)cc1	-6%
COc1ccccc1-c1cncnc1N1CCN(C)CC1	?
O=C(c1ccc([N+](=O)[O-])cc1)N1CCc2ccccc21	-6%
FC(F)(F)c1nc(-c2cccnc2)ncc1-c1nnnn1-c1ccccc1	22%
CCc1nnc(SCC(=O)N2CCCc3ccccc32)nc1CC	9%
COc1ccccc1N1CCN(C(=O)c2c3c(nc4ccccc24)C(=O)N(C2CCCCC2)C3)CC1	9%
C[C@H](NC(=O)[C@H]1N2C(=O)c3ccccc3C2SC1(C)C)C(=O)NCC1CCCO1 (stereo not given in full)	-2%
CN(C)CCCNCC(=O)Nc1ccccc1N1CCOCC1	-13%
CCOc1ccc(CN2CCC(=O)NC2=O)cc1	8%
Cc1[nH]nc2c1C(Cc1ccccc1)C(C#N)=C(N)O2 (stereo not given)	-9%
Cc1noc(C)c1S(=O)(=O)N1CCC(C(=O)NCCC2=CCCCC2)CC1	5%
O=C(Nc1cccc(F)c1)N1CCC2(CC1)CCN(C(=O)c1cnccn1)CC2	11%
O=C(CSc1ncc(S(=O)(=O)c2ccc(Br)cc2)c(=O)[nH]1)NCc1ccccc1Cl	-20%
Cc1cc2c3c(c1C)C(=O)C(=O)N3C(C)(C)CC2C (stereo not given)	-15%
Cc1ccc(OCCn2c(CCNC(=O)C3CCCCC3)nc3ccccc32)cc1	12%
CN(C)CCn1c(=S)[nH]c2ncccc2c1=O	0%
CCOC(=O)C(C)Sc1nc(-c2ccccc2Cl)cc(-c2ccccc2)c1C#N (stereo not given)	-14%
CCCSc1nc2c(c(=O)[nH]c(=O)n2C)n1C	-9%
CC(=O)/C(=C\c1ccccc1)CC(=O)O	4%
O=C(CC1C(=O)NCCN1CCCc1ccccc1)NCCc1ccccc1Cl (stereo not given)	6%
Cc1cc(=O)oc2cc(OCC(=O)NCCCN3CCCC3=O)c(Cl)cc12	-13%
